Screening results (PubChem BioAssay)
RN4220 kill: growth inhibition of S. aureus RN4220, primary screen, OD600. 16 h. inhibition, % (test concentration not listed). hit rate 0.33% among 330,000;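 active = z-score of -3 or lower and OD600 up to 0.18 on both plates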;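 note: plate controls were untreated cells for no effect and reference antibiotic for full effect; stock transfer was 100 nL into about 80 µL; one replicate is shown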
BJeLR lethal: MLPCN primary cell-based screen for lethality selective to Ras in HRASV12 cells; BJeLR (HRASV12) viability, CellTiter-Glo ATP luminescence, 48 h; reference of the scale not given here; inhibition, % (concentration not given with the values); hit rate 0.17% among 300,000;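 active = replicate mean above 50%; inconclusive = above 50% but judged a plate artefact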;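 note: 50 nL library stock added to about 25 µL; numbers are from one replicate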
ugtP null kill: growth inhibition of ugtP-null S. aureus, primary screen, RN4220 ugtP deletion, OD600; hit rate 0.54% among 330,000; 16 h; some inactives read as strong as hits; growth inhibition, % (concentration not given with the values); AID 1259309, 2017;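 active = z-score under -3 and OD600 up to 0.15 on both plates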;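 note: plate controls were untreated wells for no effect and antibiotic for full effect; wells of about 80 µL received 100 nL stock; the first replicate is given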
Mtb hypoxia rep: PubChem AID 1159583; M. tuberculosis hypoxia-regulated fluorescent reporter, fluorescence; fluorescence inhibition, % (no concentration beside the values); hit rate 0.1% among 300,000;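 active = 35 to 45% if threefold the growth effect, above 45% if 1.5-fold the growth effect; inactive = the rest, general growth blockers included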;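 note: wells of about 50 µL received 100 nL stock; 0% = vehicle wells and 100% = reference inhibitor wells; whole bacteria with a GFP reporter of the hypoxia response; strong numbers were not always called active; many hits fall short of the cut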
PrP UTR inh: inhibition of PrP 5' UTR reporter expression; cell-based PrP 5' UTR mRNA reporter, plate reader; inhibition, % (no concentration beside the values); hit rate 0.35% among 340,000; AID 488862, 2010;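 active = every replicate at 50% or more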;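 note: 0 = median of the neutral control wells; tested in H4 reporter cells; numbers are from one replicate; inactives centre near -14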
Autofluor counter: flagged as autofluorescent in microsphere protease counterscreen; compound autofluorescence counterscreen, microsphere flow cytometry; hits give high values; fluorescence intensity (no concentration beside the values); hit rate 3.1% among 360,000; AID 624483;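 active = at least 3 SD above the mean of all compounds, about 16000 in these data; inconclusive = too few beads counted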;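 note: 100 nL of 1 mM stock went into each well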
Mtb hypoxia rep growth: further read-out of Mtb hypoxia rep, marked with its call; growth inhibition, %; measured here: M. tuberculosis growth (absorbance);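 0% = vehicle and 100% = reference antibiotic; read after six days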
Starred values were filed as active, the others as inactive; u = inconclusive; x = not tested or not shown.

SMILES	RN4220 kill	BJeLR lethal	ugtP null kill	Mtb hypoxia rep	Mtb hypoxia rep growth	PrP UTR inh	Autofluor counter
C#C[C@]1(O)CCC2C3CCc4cc(OC5CCCC5)ccc4C3CC[C@@]21C (some centres not stated)	-14.4	x	31.6	-4.2	3.1	x	x
Cc1ccc(CNC(=O)C2CC(c3cccc([N+](=O)[O-])c3)=NO2)o1 (configuration not stated)	x	-5.8	x	x	x	-45.1	3087
Cc1cc(C)cc(C(N)=Nc2cccc(C#N)c2)c1	3.5	-0.8	-0.7	4.3	4.2	x	4120
CC(=O)Nc1ccc(S(=O)(=O)N(Cc2ccccc2)c2ccccn2)cc1	9.0	-0.9	9.0	16.0	-3.9	-16.7	3865
Cc1ccc(NC(=O)C2CCCN2C(=O)Oc2ccccc2)c(C)c1 (configuration not stated)	8.2	-5.1	6.3	6.5	13.1	-9.0	4411
COc1cc(NC(=O)COc2ccccc2)ccc1NC(=O)c1ccco1	6.7	0.6	-1.2	11.1	12.6	-34.8	3835
CCN1CC(c2ccccc2)C(c2ccc(Cl)cc2)=N1 (configuration not stated)	-3.9	-9.6	29.5	13.0	6.5	-14.5	2625
COc1ccc(C)cc1NC(=O)C(OC(=O)C1=NNC(=O)CC1)c1ccccc1 (configuration not stated)	2.7	x	2.3	-2.3	5.3	-14.4	3560
CCOC(=O)NC(Nc1nnc(SCC)s1)(C(F)(F)F)C(F)(F)F	-7.4	-5.2	-4.7	x	x	-8.1	4249
COc1cc(C2C(=O)N(C3CCCC3)CC(=O)N2Cc2ccco2)ccc1OC(C)C (configuration not stated)	2.8	3.0	6.9	-1.1	0.9	-20.3	21363*
COc1ccc(NC2CCN(C3CC(=O)N(c4ccc(F)c(Cl)c4)C3=O)CC2)cc1 (configuration not stated)	10.4	0.8	-0.5	x	x	-13.7	4971
Cn1c(=O)n(C)c2cc(NS(=O)(=O)c3ccc(C(C)(C)C)cc3)ccc21	4.3	5.1	0.9	1.6	-0.6	-30.0	5496
CCC1(c2ccccc2)NC(=O)N(CC(=O)N(C)Cc2ccccc2)C1=O (configuration not stated)	0.5	2.2	-4.7	18.0	3.1	-21.5	4056
CC[C@@]12C(=O)N(c3ccc(OC)cc3)C(=O)N1C(c1ccc(Cl)cc1)C1C(=O)N(C3CCCCC3)C(=O)C12 (some centres not stated)	3.2	x	1.2	-4.4	-2.5	x	x
Cc1ccc(-n2cc(CN3CCC(CO)(Cc4ccccc4)CC3)cn2)cc1	1.1	0.1	10.9	1.5	1.1	x	x
Cc1ccc2c(c1)C1C3CCC(C3)C1S(=O)N2 (configuration not stated)	0.1	-11.7	-6.6	-1.3	2.9	-27.7	4032
COC(=O)c1ccc(CNC(=O)c2ccc(OCC(=O)N3CCOCC3)c(OC)c2)cc1	2.5	4.2	2.5	0.4	2.0	-18.4	5523
N#Cc1c(-c2ccccc2)cc(-c2ccc3c(c2)OCO3)[nH]c1=O	6.4	x	2.9	6.6	9.5	-8.6	4898
CCCCN(C(=O)c1ccc(N(C)S(=O)(=O)c2ccc(C)cc2)cc1)c1c(N)n(CC(C)C)c(=O)[nH]c1=O	-3.6	x	-2.0	3.5	0.7	2.2	5816
CCC1(CC)C(=O)C2=C3C1[C@H](C(=O)OC)C=C(C(=O)OC)C[C@H]3n1c(=O)n(C)c(=O)n1[C@H]2C (some centres not stated)	x	10.9	x	x	x	-5.9	3835
CCCCOc1ccc(N2C(=O)CC(NCc3ccncc3)C2=O)cc1 (configuration not stated)	3.8	-3.7	-2.6	1.9	13.7	-70.6	4337
CCN1CCN(c2cc(N3CCCC3)c([N+](=O)[O-])cc2F)CC1	4.2	0.2	-0.9	13.2	0.6	-1.4	4140
COCC(C)NC(=O)c1cc(-c2cccc(OC)c2)on1 (configuration not stated)	8.4	10.5	-9.2	11.1	9.2	-24.6	10061
CCOC(=O)C1Oc2ccccc2C(c2ccc(C)cc2)=C1C(=O)OC (configuration not stated)	-0.2	x	95.4*	5.0	6.1	-13.0	3751
O=C(CSc1nc(C2CCCCC2)nc2ccccc12)NCc1ccco1	-0.9	-20.2	4.7	5.2	-3.0	-9.7	4504

Arranged by formula weight (low to high): some entries from above
SMILES	RN4220 kill	BJeLR lethal	ugtP null kill	Mtb hypoxia rep	Mtb hypoxia rep growth	PrP UTR inh	Autofluor counter
Cc1ccc2c(c1)C1C3CCC(C3)C1S(=O)N2 (configuration not stated)	0.1	-11.7	-6.6	-1.3	2.9	-27.7	4032
CC(=O)Nc1ccc(S(=O)(=O)N(Cc2ccccc2)c2ccccn2)cc1	9.0	-0.9	9.0	16.0	-3.9	-16.7	3865
CCC1(CC)C(=O)C2=C3C1[C@H](C(=O)OC)C=C(C(=O)OC)C[C@H]3n1c(=O)n(C)c(=O)n1[C@H]2C (some centres not stated)	x	10.9	x	x	x	-5.9	3835

(list continues)
SMILES	RN4220 kill	BJeLR lethal	ugtP null kill	Mtb hypoxia rep	Mtb hypoxia rep growth	PrP UTR inh	Autofluor counter
O=C(CCCc1nc2ccccc2s1)N1CCN(S(=O)(=O)c2cccs2)CC1	-0.1	6.0	-0.1	-1.5	-3.4	-8.6	4709
CCOC(=O)c1ccc(NC(=O)CSc2n[nH]c(-c3ccncc3)n2)cc1	-12.2	-8.6	-9.1	9.0	11.8	-19.6	3082
CCN(CC)S(=O)(=O)c1ccc(-c2nnc(SCC(=O)Nc3cc(OC)cc(OC)c3)o2)cc1	5.4	4.7	-12.0	8.1	4.3	-24.3	5422
O=C(CCNS(=O)(=O)c1cccc2nonc12)Nc1ccc(Cl)cc1	6.0	-11.8	2.4	-8.0	3.1	-27.4	5328
CCOC(=O)c1c(-c2ccc(OC)cc2)csc1/N=C/C1=C(O)CCCC1=O	x	0.7	x	x	x	-7.1	2511
COc1ccc(C2=NCCn3cccc32)c(OC)c1	3.5	9.8	2.9	18.5	-0.9	-9.9	9062
CSc1ccccc1C(=O)C1CCCN(C(=O)CCc2cccnc2)C1 (configuration not stated)	2.8	x	7.0	12.8	-0.5	-7.6	5143
O=C(c1ccc(Cl)c(Cl)c1)N1CCC(=O)N(C(COCc2cccc(C(F)(F)F)c2)Cc2ccccc2)CC1 (configuration not stated)	-2.2	-2.2	11.0	19.2	8.6	-16.8	2955
COc1ccc(NC(=O)C2C(=O)NC3(C)CC2c2ccccc2O3)cc1 (configuration not stated)	7.2	-8.1	-0.1	14.1	6.3	-6.3	2467
c1ccc(C2CN3C(=N2)Sc2ccccc23)cc1 (configuration not stated)	7.3	x	-10.9	3.2	8.5	x	x
CC(C)C(=O)NC(=S)Nc1ccccc1C(=O)Nc1ccccc1	2.1	-4.0	8.3	8.3	8.1	-26.8	11564
O=C(CNC(=O)c1ccccc1Br)NN=Cc1cc(Br)ccc1O	-1.2	x	-2.5	8.8	2.0	x	x
COC(=O)c1ccccc1NC(=O)CSc1nncn1C	-3.1	4.2	-1.1	-3.3	-4.9	-35.3	4534
Cc1ccc(NS(=O)(=O)c2ccc(C3CCCCC3)cc2)cc1	-23.0	-8.5	-17.0	-9.9	2.4	-14.7	2588
O=C(NCc1ccc(F)cc1)C1CC(=O)N(C2CCCCC2)C1 (configuration not stated)	0.9	-0.3	1.8	-1.4	7.6	-8.7	5331
CCN1C(=O)NC(=O)/C(=C\c2cn(CC(=O)N3CCCCC3C)c3ccccc23)C1=O (configuration not stated)	0.3	2.4	4.0	1.9	6.8	-15.2	u
COc1ccc(CCNC(=O)CCCCCn2c(SCC(N)=O)nc3cc4c(cc3c2=O)OCO4)cc1OC	0.2	2.0	1.4	17.8	19.1	-12.2	4457
O=C1NC2(CCCCCCC2)C(=O)N1Cc1ccc(F)cc1	5.4	0.6	6.4	21.6	10.7	-11.6	3686
CCCS(=O)(=O)n1nc(-c2ccc(OC)cc2OC)cc1N	2.9	-11.7	9.7	1.4	1.9	-21.2	4007
CCN(CC)S(=O)(=O)c1cc(C(=O)Oc2ccccc2OC)ccc1OC	6.4	2.8	0.5	-3.8	2.5	-11.2	22741*
CCOc1cc2[nH]c(=S)n(CCC(=O)NCc3ccco3)c(=O)c2cc1OCC	1.2	8.4	7.0	10.0	0.6	-7.7	3338
CCc1nnc(NC(=O)c2ccc(Cl)nc2)s1	-2.8	-6.1	6.9	-10.0	2.0	-10.3	3843
NC(=O)c1ccccc1NC(=O)COc1ccc2c(c1)OCO2	0.1	-12.6	-5.6	-8.3	-4.3	-23.6	3192
O=C(COC(=O)c1ccc(O)cc1O)Nc1cc(-c2ccccc2)nn1-c1ccccc1	-13.5	-3.1	-5.5	7.5	-4.4	-15.5	u
CCOC(=O)c1ccc(NC(=O)C(C)NS(=O)(=O)c2ccc(OC)cc2)cc1 (configuration not stated)	-2.7	-4.0	-6.7	4.9	7.1	-6.9	16181*

Reformatted with values under each structure: part of the list above
Order of results: RN4220 kill	BJeLR lethal	ugtP null kill	Mtb hypoxia rep	Mtb hypoxia rep growth	PrP UTR inh	Autofluor counter
> O=C(NCc1ccc(F)cc1)C1CC(=O)N(C2CCCCC2)C1 (configuration not stated)
  0.9	-0.3	1.8	-1.4	7.6	-8.7	5331
> CCN1C(=O)NC(=O)/C(=C\c2cn(CC(=O)N3CCCCC3C)c3ccccc23)C1=O (configuration not stated)
  0.3	2.4	4.0	1.9	6.8	-15.2	u
> COc1ccc(CCNC(=O)CCCCCn2c(SCC(N)=O)nc3cc4c(cc3c2=O)OCO4)cc1OC
  0.2	2.0	1.4	17.8	19.1	-12.2	4457
> O=C1NC2(CCCCCCC2)C(=O)N1Cc1ccc(F)cc1
  5.4	0.6	6.4	21.6	10.7	-11.6	3686

A few values from the list:
CC[C@@]12C(=O)N(c3ccc(OC)cc3)C(=O)N1C(c1ccc(Cl)cc1)C1C(=O)N(C3CCCCC3)C(=O)C12 (some centres not stated) in RN4220 kill is listed with 3.2
CCCCOc1ccc(N2C(=O)CC(NCc3ccncc3)C2=O)cc1 (configuration not stated) in Autofluor counter is listed with 4337
Cc1ccc(-n2cc(CN3CCC(CO)(Cc4ccccc4)CC3)cn2)cc1 in ugtP null kill is listed with 10.9
CCN1CCN(c2cc(N3CCCC3)c([N+](=O)[O-])cc2F)CC1 in Mtb hypoxia rep is listed with 13.2
COc1ccc(C)cc1NC(=O)C(OC(=O)C1=NNC(=O)CC1)c1ccccc1 (configuration not stated) in RN4220 kill is listed with 2.7
CCOC(=O)c1c(-c2ccc(OC)cc2)csc1/N=C/C1=C(O)CCCC1=O in PrP UTR inh is listed with -7.1

(more compounds)
SMILES	RN4220 kill	BJeLR lethal	ugtP null kill	Mtb hypoxia rep	Mtb hypoxia rep growth	PrP UTR inh	Autofluor counter
COc1cc(/C=N/NC(=O)Cc2nnc(N)s2)cc(OC)c1OC	x	0.8	x	x	x	-24.2	4186
Cc1cc([N+](=O)[O-])ccc1NC(=S)NC(=O)C(c1ccccc1)c1ccccc1	-10.9	-4.1	-3.3	x	x	-11.3	2462
S=C1NNC2(NN1)C1CC3CC(C1)CC2C3	1.5	0.7	3.4	x	x	-4.7	3471
Cn1c2ccccc2c2c(C(=O)N3CCN(c4ccccn4)CC3)cn(C3CCCC3)c(=O)c21	1.8	-8.5	-0.1	9.3	10.5	-11.5	3159
CC(=O)NCCOc1cccc2cccnc12	8.4	1.3	0.0	2.3	5.3	7.0	5152
C/C(=N\Nc1ccc(Cl)c(C(=O)O)c1)c1cccs1	x	9.8	x	x	x	-45.1	4637
O=C(CN1C(=O)CCC1=O)Nc1cccc(NC(=O)CN2C(=O)CCC2=O)c1	1.5	10.1	10.7	8.5	1.1	-16.4	3962
COc1ccc(OCC(=O)Sc2ccc(C)cc2)cc1	-0.8	9.1	9.6	x	x	-11.4	2789
Cc1ccc(S(=O)(=O)N2CCN(C(=O)CSCc3ccc(C(C)C)cc3)CC2)cc1	15.4	x	-5.9	-5.5	-3.1	-14.4	3071
S=C(NC1CCCCC1)N(CCc1ccccc1)CCc1ccccc1	-5.8	x	3.8	-7.0	-3.2	-7.0	2599
CCc1ccccc1NC(=O)CN1CCN(CC(=O)Nc2ccc3c(c2)OC2(CCCCC2)O3)CC1	-4.8	x	-7.0	-5.8	-7.9	3.6	3084
Clc1ccc(-c2cc(COc3ccccc3)no2)cc1Cl	16.1	1.6	13.6	-5.6	7.5	-20.9	u
Cc1ccc(C2=NNC(=Nc3ccc(F)cc3)SC2)cc1	-0.9	x	6.2	1.0	11.6	-38.8	4228
Cc1cc(=O)c2ccccc2n1CC(=O)NCc1ccccc1	2.6	-3.9	-1.2	x	x	-6.4	1794
